# Screens (PubChem BioAssay)
# Polio RdRp inh: poliovirus RNA polymerase inhibition. poliovirus polymerase elongation, fluorescence polarization; stronger effect = lower value. % elongation, % (compound at 16.7 µg/mL). actives 0.66% (n = 150,000). AID 588519; in the data active = % elongation below about 90%; note: some results filed as inactive read as strong as hits
# Target sequence (P03300 1749-2209 limits assumed): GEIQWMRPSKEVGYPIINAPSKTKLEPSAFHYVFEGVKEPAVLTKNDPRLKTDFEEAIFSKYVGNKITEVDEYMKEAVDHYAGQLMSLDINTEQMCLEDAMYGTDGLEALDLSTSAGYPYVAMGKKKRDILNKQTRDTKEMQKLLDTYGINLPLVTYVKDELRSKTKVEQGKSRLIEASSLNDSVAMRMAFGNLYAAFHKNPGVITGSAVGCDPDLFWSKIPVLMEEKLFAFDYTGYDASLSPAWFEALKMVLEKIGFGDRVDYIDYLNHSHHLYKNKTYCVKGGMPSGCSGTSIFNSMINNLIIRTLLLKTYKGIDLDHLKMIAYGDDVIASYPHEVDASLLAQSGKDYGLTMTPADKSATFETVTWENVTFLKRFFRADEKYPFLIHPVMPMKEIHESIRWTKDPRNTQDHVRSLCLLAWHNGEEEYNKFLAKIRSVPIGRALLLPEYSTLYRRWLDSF
# MenB inh: blocks the Mycobacterium tuberculosis MenB enzyme; AID 540299; inhibition, %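 (about 12 µg/mL by stock and volumes)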; actives 0.43% (n = 100,000); P9WNP5; MenB enzyme assay, absorbance read-out; some hits fall short of the stated cut;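 active = mean of two replicates above 30%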;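 note: 0% = no compound and 100% = wells with inactive enzyme; the first replicate is given; strong numbers were not always called active; inactives centre near -10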
# Target sequence (P9WNP5 whole entry, looked up): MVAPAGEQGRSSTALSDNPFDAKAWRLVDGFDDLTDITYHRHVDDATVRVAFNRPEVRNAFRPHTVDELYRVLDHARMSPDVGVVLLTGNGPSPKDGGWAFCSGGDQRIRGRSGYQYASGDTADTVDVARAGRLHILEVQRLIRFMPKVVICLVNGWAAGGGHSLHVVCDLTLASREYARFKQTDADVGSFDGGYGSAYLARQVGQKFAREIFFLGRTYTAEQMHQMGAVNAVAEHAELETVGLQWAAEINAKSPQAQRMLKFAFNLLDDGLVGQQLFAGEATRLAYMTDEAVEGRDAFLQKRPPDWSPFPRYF
# Mtb MbtI inh: blocks the Mycobacterium tuberculosis siderophore enzyme MbtI; P9WFX0; purified MbtI enzyme, fluorescence intensity read-out; inhibition, %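 (about 17 µg/mL by stock and volumes)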; actives 0.89% (n = 100,000);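 active = above 50% in both replicates, above 80% if mildly self-fluorescent; inactive = the rest, strongly fluorescent compounds included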;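 note: 0% = mean of negative and 100% = mean of positive controls; one replicate is shown; some compounds called inactive have numbers as strong as hits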
# Polio RdRp inh intensity: recorded beside Polio RdRp inh, whose call it bears; % elongation; measured here: total intensity read-out; formula for this scale not given here;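 total fluorescence in place of polarization; lower means less elongation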
# Active calls of the source: *; · = no result given; & = joins results of further samples.
entry	mol	Polio RdRp inh	Mtb MbtI inh	Polio RdRp inh intensity	MenB inh
1	Cc1sc2ncn(-n3cccc3)c(=O)c2c1-c1ccccc1	103	6	96	·
2	Cc1cc(C(=O)COC(=O)CSc2nnc(NC3CCCCC3)s2)c(C)n1C1CC1	107	2	105	-16
3	Cc1nc(NCc2ccco2)c2cc(-c3ccccc3)sc2n1	107	·	112	-44
4	COC(=O)c1c(N)sc2c1CCCC2	100	10	102	-14
5	CCN1CCN(C(=O)c2ccc(I)cc2)CC1	101	-10	99	·
6	COC(=O)C1CCCN1C(=O)c1ccccc1 (stereo not drawn)	100	-10	101	-23
7	Cn1c(=O)cc(OCCCC(=O)N2CCCCC2)c2ccccc21	101	6	104	-5
8	COc1cc(NC2c3ccccc3C(=O)N2Cc2ccco2)cc(OC)c1OC (stereo not drawn)	103	-4	102	-2
9	O=C(Cc1n[nH]c(=O)c2ccccc12)N1CCc2ccccc2C1	·	-6	·	-11
10	O=C1Nc2ccccc2SC1CC(=O)N1CCN(Cc2ccccc2F)CC1 (stereo not drawn)	107	-6	113	-10
11	CCSc1nc(Cl)c2ccccc2n1	101	198	99	-9
12	CCOc1cccc(/C=N/n2c(C)n[nH]c2=S)c1	99	50	100	-10
13	Cc1ccc(OCC(=O)NC(=S)N2CCOCC2)cc1	107	-4	99	-33
14	CC(=O)NC(CC(=O)Nc1ccc2c(c1)OCO2)c1ccccc1 (stereo not drawn)	106	-9	110	-6
15	CCCCC[C@H](O)/C=C/[C@H]1[C@H](O)CC(=O)[C@@H]1CCCCCCC(=O)O	102&101&100	-17&-12	103&102&102	7&6
16	Cc1ccccc1Nc1nnc(C)c(=O)n1N	105	26	107	-18
17	O=C(NCCC(=O)N1CCCCCC1)c1ccccc1Cl	100	2	95	1
18	Cc1ccc2nsnc2c1NC(=O)Cc1ccc(Cl)cc1	101	2	103	-14
19	NC(=O)COC(=O)CCc1nc2ccccc2n1-c1ccccc1	100	-4	98	-3
20	Cc1cccc(N(CC(=O)O)S(C)(=O)=O)c1	101	-27	102	-3
21	O=C(Nc1ccccc1O)c1ccccc1	105	6	108	·
22	COc1ccc(Nc2ccc(S(=O)(=O)N3CCCC3)cn2)cc1O	100	50	103	0
23	Cc1ccc2oc(-c3ccccc3C)nc2c1	103	39	98	-51
24	CN1C(=O)S/C(=C/c2ccc(-c3ccc(C(=O)O)c(Cl)c3)o2)C1=O	100	-30	105	-48
25	O=C(CNc1ccc(Br)cc1F)NCc1ccco1	99	5	102	-34
26	COc1ccccc1NC(=O)N(Cc1nc(-c2ccc(Cl)cc2)no1)C(C)C	101	-9	106	-11
27	O=C(CSc1nc(O)cc(=O)[nH]1)N1c2ccccc2Sc2ccccc21	97	8	95	16
28	O=C(Cn1cnc2c(nnn2-c2cccc(Cl)c2)c1=O)NC1CCCCC1	103	9	109	-6
29	O=C(CN1CCC(n2nnc3cc(F)ccc32)CC1)NCCc1ccccc1	106	-6	104	-56
30	COc1ccc(OCc2nnc(SCC(=O)N(C3CCCCC3)C3CCCCC3)o2)cc1	100	-6	101	-3
31	CN1Cc2ccc(CN3C(=O)c4ccccc4C3=O)cc2NC1=O	101	-7	102	-14
32	COCCNC(=O)c1cccc2c1-c1ccccc1C2=O	101	2	102	-7
33	C(=N\N1CCOCC1)/c1ccc2c(c1)OCCO2	105	12	103	1
34	CCN(CC)CCn1c2c(c(SCC(=O)Nc3cc(C)on3)nc1=O)CCCC2	98	-9	102	-16
35	CC(C)Oc1ncc(C(F)(F)F)cc1Cl	103	-4	103	·
36	O=C(CCn1nc(-c2ccc(Cl)cc2)c2ccccc2c1=O)NCCN1CCOCC1	97	8	92	-5
37	O=C1C2Cc3ccccc3CN2C(=S)N1Cc1ccccc1 (stereo not drawn)	102	11	102	-26
38	CCN1CCN(C(=O)C(N)Cc2ccccc2)CC1 (stereo not drawn)	106	3	102	13
39	CC(=O)Nc1nc(-c2ccccc2)nc2sc(C#N)c(C)c12	100	-6	100	-16
40	COc1ccc(S(=O)(=O)NCc2cccnc2)cc1C(=O)N1CCOCC1	104	-7	99	-74

# From compound 12 as far as 13, copied from above:
entry	mol	Polio RdRp inh	Mtb MbtI inh	Polio RdRp inh intensity	MenB inh
12	CCOc1cccc(/C=N/n2c(C)n[nH]c2=S)c1	99	50	100	-10
13	Cc1ccc(OCC(=O)NC(=S)N2CCOCC2)cc1	107	-4	99	-33

# Following part:
entry	mol	Polio RdRp inh	Mtb MbtI inh	Polio RdRp inh intensity	MenB inh
41	COc1ccc(N2CCN(CCNC(=O)c3nnc(-c4ccc5c(c4)OCO5)o3)CC2)cc1	104	18	98	2
42	CCOC(=O)c1cc(-c2cc(OC)ccc2OC)no1	101	-5	112	-34
43	Cc1nnc(SCC(=O)OC2CC(C)CCC2C(C)C)[nH]c1=O (stereo not drawn)	101	0	99	-5
44	CCCNC(=O)[C@H]1O[C@@H]1C(=O)N[C@H](C(=O)N1CCC[C@H]1C(=O)OC)[C@@H](C)CC	102	·	102	-5
45	O=S(=O)(NCc1cccnc1)c1ccc2ccccc2c1	103	3	102	-7
46	O=C(O)CC1NC(=O)c2ccc(Br)cc21 (stereo not drawn)	103	-30	102	-20
47	O=C(/C=C/c1ccco1)Nc1ccc(S(=O)(=O)N2CCCC2)cc1	105	·	108	0
48	CC1(C)CCCC2=C1CC(C(=O)O)C(C(=O)O)C2 (stereo not drawn)	98	-2	98	4
49	CN(C(=O)Cn1ncc2c1-c1ccccc1OC2)C1CCCCC1	104	-3	97	-30
50	O=C(Nc1ccccc1)NC(c1ccccc1)c1nnc(-c2ccccc2)o1 (stereo not drawn)	101	-18	102	-21
51	Cc1cc(C)cc(-n2cnc3ccccc3c2=O)c1	103	-6	105	-33
52	NC(=O)COC(=O)COc1ccc(Cl)cc1Cl	104	-17	105	·
53	Cc1cc(Cc2ccc(N)c(C)c2)ccc1N	110	·	113	-10
54	Cc1nn(-c2ccccc2)c2c1P(=O)(O)/C(=C1/N(C)c3ccccc3C1(C)C)C=N2	106	14	109	-219
55	CC(Sc1nccn1C)C(=O)NC1(C#N)CCCCC1 (stereo not drawn)	107	-11	108	-18
56	O=C(O)/C=C/c1ccc(Cl)c(Cl)c1	103	-3	101	·
57	CCN1CCCC1CNC(=O)C1c2ccccc2C(=O)N(CC(C)C)C1c1cccs1 (stereo not drawn)	103	-2	102	2
58	CCc1ccc(S(=O)(=O)c2cnc3ccccc3c2N2CCN(C)CC2)cc1	·	15	·	-21
59	COC(=O)c1nn(-c2ccccc2)cc1OCC(=O)N1CCc2ccccc21	103	35	103	-98
60	CCN(CC)C(=O)C1CC(c2ccc(F)cc2)=NO1 (stereo not drawn)	99	-6	106	-31
61	CCCN(CCC)C(=O)c1cnn(-c2ccc(F)cc2)c1-n1cccc1	100	-9	103	-5
62	CCN1C(=O)C2C(c3ccc(F)cc3)NC(CCSC)(C(=O)OC)C2C1=O (stereo not drawn)	106	-6	102	-33
63	CC(C)C(N)c1nc2ccccc2[nH]1 (stereo not drawn)	102	-17	110	-17
64	Oc1ccccc1N1CCN(C=Nc2nc3ccccc3nc2N2CCOCC2)CC1	100	-36	104	-26
65	CCNc1nc(SCC(=O)OCC)nc2sc3c(c12)CCC(C)C3 (stereo not drawn)	105	-16	112	5
66	CCOC(=O)C(C(N)=O)C1(O)OC(c2ccccc2)=CC1=O (stereo not drawn)	98	40	103	34
67	CCCCOC(=O)C1Cc2ccccc2C(=O)O1 (stereo not drawn)	101	-15	101	-11
68	O=C(Nc1ccc2nsnc2c1)C1CC1	102	91	100	-7
69	Cc1nc(Nc2ccccc2)nc(=O)n1-c1ccccc1	103	-4	103	10
70	CC1=C(C(=O)Nc2ccc(CC(=O)N3CCC4(CC3)OCCO4)cc2)SCCO1	105	3	105	-5
71	COc1ccccc1NC(=O)CC(NC1CCCCC1)C(=O)O (stereo not drawn)	101	3	100	2
72	CCNC(=S)N(C)Cc1cc(Br)ccc1OC	101	-27	94	-4

# Rewritten in transposed form: entries from further up
[51] Cc1cc(C)cc(-n2cnc3ccccc3c2=O)c1
[52] NC(=O)COC(=O)COc1ccc(Cl)cc1Cl
[53] Cc1cc(Cc2ccc(N)c(C)c2)ccc1N
[54] Cc1nn(-c2ccccc2)c2c1P(=O)(O)/C(=C1/N(C)c3ccccc3C1(C)C)C=N2
[55] CC(Sc1nccn1C)C(=O)NC1(C#N)CCCCC1 (stereo not drawn)
[56] O=C(O)/C=C/c1ccc(Cl)c(Cl)c1
[57] CCN1CCCC1CNC(=O)C1c2ccccc2C(=O)N(CC(C)C)C1c1cccs1 (stereo not drawn)
[58] CCc1ccc(S(=O)(=O)c2cnc3ccccc3c2N2CCN(C)CC2)cc1
assay / entry | 51 | 52 | 53 | 54 | 55 | 56 | 57 | 58
Polio RdRp inh | 103 | 104 | 110 | 106 | 107 | 103 | 103 | ·
Mtb MbtI inh | -6 | -17 | · | 14 | -11 | -3 | -2 | 15
Polio RdRp inh intensity | 105 | 105 | 113 | 109 | 108 | 101 | 102 | ·
MenB inh | -33 | · | -10 | -219 | -18 | · | 2 | -21

[59] COC(=O)c1nn(-c2ccccc2)cc1OCC(=O)N1CCc2ccccc21
[60] CCN(CC)C(=O)C1CC(c2ccc(F)cc2)=NO1 (stereo not drawn)
[61] CCCN(CCC)C(=O)c1cnn(-c2ccc(F)cc2)c1-n1cccc1
[62] CCN1C(=O)C2C(c3ccc(F)cc3)NC(CCSC)(C(=O)OC)C2C1=O (stereo not drawn)
[63] CC(C)C(N)c1nc2ccccc2[nH]1 (stereo not drawn)
[64] Oc1ccccc1N1CCN(C=Nc2nc3ccccc3nc2N2CCOCC2)CC1
[65] CCNc1nc(SCC(=O)OCC)nc2sc3c(c12)CCC(C)C3 (stereo not drawn)
[66] CCOC(=O)C(C(N)=O)C1(O)OC(c2ccccc2)=CC1=O (stereo not drawn)
assay / entry | 59 | 60 | 61 | 62 | 63 | 64 | 65 | 66
Polio RdRp inh | 103 | 99 | 100 | 106 | 102 | 100 | 105 | 98
Mtb MbtI inh | 35 | -6 | -9 | -6 | -17 | -36 | -16 | 40
Polio RdRp inh intensity | 103 | 106 | 103 | 102 | 110 | 104 | 112 | 103
MenB inh | -98 | -31 | -5 | -33 | -17 | -26 | 5 | 34

[67] CCCCOC(=O)C1Cc2ccccc2C(=O)O1 (stereo not drawn)
[68] O=C(Nc1ccc2nsnc2c1)C1CC1
[69] Cc1nc(Nc2ccccc2)nc(=O)n1-c1ccccc1
assay / entry | 67 | 68 | 69
Polio RdRp inh | 101 | 102 | 103
Mtb MbtI inh | -15 | 91 | -4
Polio RdRp inh intensity | 101 | 100 | 103
MenB inh | -11 | -7 | 10

# The list continues:
entry	mol	Polio RdRp inh	Mtb MbtI inh	Polio RdRp inh intensity	MenB inh
73	CN(CC(=O)Nc1ccc(OC(F)(F)F)cc1)C(=O)/C=C/c1ccco1	98	3	101	-4
74	CC(Oc1cccc(Oc2ccccc2)c1)C(N)=O (stereo not drawn)	100	-3	96	-34
75	COc1cc2nc(C3CCC3)n(NC(=O)COc3ccccc3)c(=O)c2cc1OC	102	2	105	0
76	COc1cc(C(=O)N2CCSC2=NCCc2ccccc2)ccc1OCc1c(C)noc1C	100	3	107	-27
77	CC1(C)O[C@@H]2CC3C4CCC5=CC(=O)C=C[C@]5(C)[C@@]4(F)[C@@H](O)C[C@]3(C)[C@]2(C(=O)CO)O1 (stereo partly drawn)	99	-22	102	8
78	COc1ccc(OC)c(C2=NOC(C(=O)Nc3c(C)n(C)n(-c4ccccc4)c3=O)C2)c1 (stereo not drawn)	99	-10	100	-8
79	COc1ccc(-c2coc3cc(O)ccc3c2=O)cc1	101	-35	102	-5
80	C=CCC1(CC=C)CCCN1	104	0	103	-2
81	O=c1oc2cc(O)ccc2c2c1CCCC2	102	100	102	-21
82	O=C1CNC(=O)/C1=C\c1ccc(Br)cc1	103	47	104	-35
83	COCCNC(=O)c1ccc(Cl)cc1	102	-1	102	3
84	COc1ccc(C(O)c2cccs2)cc1OC (stereo not drawn)	99	-6	104	-8
85	CCCc1ccc(OCc2ccc(C(=O)n3cc(Br)cn3)cc2)cc1	101	-2	101	-18
86	CCNC(=O)CC1S/C(=N\N=C\c2ccc(C)o2)NC1=O (stereo not drawn)	100	-10	102	-12
87	Cc1coc(NC(=O)CSc2nc3c(c(C(F)(F)F)c2C#N)CC(c2ccccc2)CC3)n1 (stereo not drawn)	99	18	102	-17
88	Cc1csc(NC(=O)c2cc3c(s2)CCC3)n1	102	11	104	·
89	CC1CCCC(C)N1C(=O)COC(=O)c1cccc(Br)c1 (stereo not drawn)	101	-6	103	·
90	O=C(/C=C/c1cn(-c2ccccc2)nc1-c1ccc2c(c1)OCCO2)NCCO	102	107	103	-27
91	CC1CC(C)CN(C(=O)COc2ccccc2)C1 (stereo not drawn)	107	·	103	-21
92	CCOC(=O)CN1CC23C=CC(O2)C(C(=O)Nc2ccc(CC)cc2)C3C1=O (stereo not drawn)	104	-1	105	2
93	CC1(C(=O)NCc2ccccc2)CCC(=O)N1CCC1=CCCCC1 (stereo not drawn)	100	-7	105	4
94	CC(C)C(NC(=O)c1ccccc1F)C(=O)O (stereo not drawn)	104	-6	105	·
95	Cc1ccc(NC(=O)COC(=O)C2CC2C)c(S(=O)(=O)N2CCCCC2)c1 (stereo not drawn)	101	-12	103	1
96	CC1(C)CC2CC(C)(CN2/C=C/C#N)C1 (stereo not drawn)	104	-4	107	-17
97	O=C1NCCN1c1ncc([N+](=O)[O-])s1	100	0	100	-1
98	OC(CNc1ccccn1)COc1ccc(OCC(O)CNc2ccccn2)cc1 (stereo not drawn)	104	-7	101	-1
99	O=C(COc1ccc(-n2cnnn2)cc1)NC12CC3CC(CC(C3)C1)C2	102	15	103	-5
100	C1=C(CCNc2nc3ccccc3n3nnnc23)CCCC1	102	-3	103	-6
101	COc1cc(OC)c(/C=N/O)cc1Br	105	·	102	21
